VACV Venus inh = vaccinia inhibition (Venus reporter) | actives 0.46% (n = 330,000) | Vaccinia virus Venus reporter expression, fluorescence | Potency, µM (top dose mostly 36.5 µM), for the others: at the top dose activity change, negative = inhibition, actives largely listed as inhibitors | AID 720580; active means well fitted inhibition curve with a large enough effect; inconclusive means small, poorly fitted or top-dose-only effect; inactive means no such curve, though single readings can be large or run the other way; tested in A549 cells; further: nearly all actives have a fitted effect of over 30% in size; inactives centre near -10
VACV mCherry inh = vaccinia inhibition (mCherry reporter); Vaccinia virus mCherry reporter infection, fluorescence; about a quarter of the inactives have no number; Potency, µM (highest dose often 36.5 µM), for inactives: at the highest dose activity change, negative = inhibition, most hits filed as inhibitors; actives 0.63% (n = 310,000); active = well fitted inhibition curve with a large enough effect; inconclusive = small, poorly fitted or top-dose-only effect; inactive = no such curve, though single readings can be large or run the other way; tested in A549 cells; further: nearly all actives have a fitted effect of over 35% in size; inactives centre near -10
* = called active by the depositor; i = inactive; ? = inconclusive; / = no result given; & = joins results of further samples; [ ] = remark or other dose. On the % scale 0 is the no-effect control and ±100 the full control effect; potency means the concentration at half of the fitted maximal effect.

canonical_smiles	VACV Venus inh	VACV mCherry inh
COc1ccc(S(=O)(=O)Nc2c(C)nc3nc(C)[nH]n3c2=O)cc1	-17.9%&-3.8%	-14.9%&2.4%
COc1ccc(NC(=O)CSc2nccn2Cc2ccc3c(c2)OCO3)cc1	-12.3%	2.8%
O=C(CN(Cc1cccs1)S(=O)(=O)c1ccc(S(=O)(=O)N2CCCCC2)cc1)Nc1ccccc1	-10.3%	i
COc1ccccc1C(=O)NC(CCSC)C(=O)OCC(=O)NC(=O)NCc1ccco1 (stereo not drawn)	-15.4%	/
COCc1[nH]nc2c1C(c1ccccc1F)C(C#N)=C(N)O2 (stereo not drawn)	-5.5%	-0.9%
O=C(NN=C1CCCCCCCCCCC1)c1ccccc1F	-8.1%	-2.7%
COc1cc(C=O)cc(Br)c1OCC(N)=O	-9.6%	i
CCCCn1cnc2c(SCc3ccccn3)nc(N)nc21	-5.4%	-10.5%
CC(C)CNc1ncnc2c1cnn2Cc1ccccc1Cl	-17.9%	-12.9%
CCCc1nc2c3ccccc3ccn2c1Cc1cccc(Cl)c1	7.9%	20.9%
C=CCNC(=O)CSc1nnc(-c2cccc(S(=O)(=O)N3CCOCC3)c2)o1	?	-24.1%
O=C(COC(=O)CC1CC2CCC1C2)Nc1cccc(S(=O)(=O)NC2=NCCCCC2)c1 (stereo not drawn)	-6.8%	-2.2%
Cc1sc2c(c1C)CN(C(C)(C)C)CN2C(=O)c1ccccc1	-6.1%	/
CCCCCC(=O)Nc1cc(S(=O)(=O)N2CCCCC2)ccc1N1CCCCC1	-11.2%	-10.7%
Cc1nc(N)c(Cc2ccccc2F)c(N)n1	-8.5%	-22.4%
CC(C)[C@H](NS(=O)(=O)c1ccccc1)C(=O)OCC(=O)Nc1ccccc1Sc1ccccc1	-22.3%	i
CC1C(=O)N2CCCc3cc(NC(=O)COc4ccc(Cl)cc4)cc1c32 (stereo not drawn)	-3.3%	1.4%
CCOC(=O)CC1=C(C(=O)OCC)C(c2ccncc2)C(C#N)=C(N)O1 (stereo not drawn)	-10.4%	-6.4%
COc1cccc(NC(=O)NC2CCCCC2C)c1 (stereo not drawn)	-17.4%	i
O=C(O)CC(NC(=O)c1ccncc1)c1ccccc1 (stereo not drawn)	-16.6%	-4.9%
CC(=O)N/C(=C\c1ccccc1)C(=O)OCc1cccc(S(=O)(=O)N(C)C)c1	-11.1%	-26.3%
O=C(O)c1ccc(-c2ccc(OS(=O)(=O)c3ccccc3F)cc2)cc1	3.6%	-4.0%
CCc1ccc(C2CC(c3ccc(Cl)cc3)n3nc(N)nc3N2)cc1 (stereo not drawn)	-4.5%	-13.5%
COc1ccccc1-c1cc2nc(C)c(CCC(=O)Nc3cc(C)ccc3C)c(C)n2n1	?	?
Cc1ccsc1C1C(C#N)=C(N)OC2=C1C(=O)CC(C)C2 (stereo not drawn)	-2.8%	-19.2%
CN(C)S(=O)(=O)c1cccc(COc2cccnc2[N+](=O)[O-])c1	-8.6%	-14.8%
CCOc1ccc(OCCC(=O)OCC(=O)Nc2ccc(Cl)cn2)cc1	-17.7%	i
O=C(CCC1CCCN(C(=O)c2ccncc2)C1)NCc1ccc(F)c(F)c1 (stereo not drawn)	-12.3%	-3.9%
Cc1c(CC(Cl)(Cl)Cl)c2c(n1O)CC(C)(C)CC2=O	-16.7%	-0.5%
CCC[N+]12CCC(CC1)C(=C(c1ccccc1)c1ccccc1)C2	5.9%	-1.6%
N#Cc1ccccc1CSCCNC(=O)Cc1c(F)cccc1Cl	-11.4%	-16.7%
CCC1CCC(C)N(N=O)C1 (stereo not drawn)	-9.9%	i
CCC(c1nnnn1C1CCCC1)N1CCN(c2cccc(OC)c2)CC1 (stereo not drawn)	-12.6%	-28.9%
O=C(NN1CCOCC1)c1cn(-c2ccccc2)nc1-c1cccs1	0.0%	-9.4%
CCN1CCN(C(=O)c2ccc3c(c2)N(Cc2ccccc2)C(=O)c2ccccc2S3(=O)=O)CC1	-4.4%&-11.3%	-5.0%&-7.6%
CN(C)c1cccc(O)c1	-6.1%	i
Cn1c(=O)[nH]c(NC2CCCCC2)c(N=O)c1=O	-6.2%	-7.5%
COCCCNC(=S)NCCCNc1nc2cc(C)cc(C)c2cc1C#N	?	-16.7%
CCOC(=O)c1c(NC(=O)C(C)Sc2cn(CCNC(=O)c3ccc(OC)c(OC)c3)c3ccccc23)sc2c1CCC2 (stereo not drawn)	-21.9%	?
Cc1ccccc1CN(C)CC(=O)NC(C)CCc1ccccc1 (stereo not drawn)	-9.6%	-17.2%
COc1ccc(S(=O)(=O)N(C)c2ccc(OCC(=O)Nc3cc(C)on3)cc2)cc1	5.8%	-5.0%
C[C@@H]1CN([C@@H](C)CO)C(=O)c2cc(C#CC(C)(C)O)cnc2O[C@@H]1CN(C)C(=O)c1ccccc1F	-2.1%	i
Cc1ccc(NC(=O)Nc2nnc(Cc3ccc(F)cc3)s2)cc1	-6.1%	i
Cc1cccc(NC(=O)CSc2ccc(-c3ccccn3)nn2)c1	-19.2%	?
CC(C)CC1CCCCC1OC(=O)CN1CCCCC1 (stereo not drawn)	0.9%	i
O=C(Nc1cc(Cl)cc(Cl)c1)C1CC(=O)N(C2CCCC2)C1 (stereo not drawn)	-17.5%	-3.0%
CC(C)(C)C(=O)Nc1ccccc1C(=O)Nc1ccncc1	-18.5%	-8.7%
CN(C)c1ccc(/C=N/NC(=O)CNC(=O)c2ccco2)cc1	-18.9%	i
Cc1ccc2c(c1)c1c3n2CC(=C2C(=O)OC(C)(C)OC2=O)NC3CCC1 (stereo not drawn)	-10.6%	?
COc1ccc2c(c1)CCc1sc(NC(=O)c3ccco3)nc1-2	?	?

Remaining list, next part
canonical_smiles	VACV Venus inh	VACV mCherry inh
COc1cccc(-c2nn(C)c3sc(C(=O)N4CCN(c5cccc(C(F)(F)F)c5)CC4)cc23)c1	0.7%	9.7%
N#Cc1ccccc1NC(=O)c1ccc2c(c1)OCCO2	1.6%	-1.2%
Cc1nc2c(OCc3ccc(C(F)(F)F)cc3)cccn2c1N(C)Cc1cccs1	-12.7%	i
CCn1c(C(=O)O)c(CC(=O)NC2CCCCCC2)c2ccccc21	0.0%	i
O=S(=O)(NCc1cn2ccsc2n1)c1cccs1	-13.1%	/
CCc1nc2c(OCc3ccccc3)cccn2c1N(Cc1ccccc1)C(C)=O	-9.7%	-25.8%
CCOc1ccc(CCNC(=O)COC(=O)C2CC2)cc1OCC	-7.3%	-12.3%
COc1ccc(-c2cc(C(=O)OCC(=O)Nc3cc(C)on3)c3ccccc3n2)cc1OC	-6.1%	/
NC(=O)c1nsc(C(=O)N(CC(=O)NCc2ccco2)c2ccccc2F)c1N	-15.9%	-2.5%
O=C(CN1CCCCCC1)OCCN=C1NS(=O)(=O)c2ccccc21	-7.5%	/
CCN1C(=O)C(=O)N(CC(=O)c2[nH]c(C)c(C(C)=O)c2C)C1=O	-8.1%	-6.7%
O=c1[nH]c(/C=C\c2cccc(C(F)(F)F)c2)nc(O)c1[N+](=O)[O-]	-8.5%	i
CCOc1cc2c(cc1OCC)C(c1c(F)cccc1Cl)CC(=O)N2 (stereo not drawn)	-12.3%	-9.8%
CCOc1ccc(N2CSC3=C(C#N)C(c4ccco4)CC(=O)N3C2)cc1 (stereo not drawn)	-6.8%	-3.7%
CCCn1c(COc2ccccc2OC)nc2ccccc21	1.7%	-12.9%
CC1=C(C(=O)N(C)C)CC(CC(=O)NCc2cccc3ccccc23)C(=O)N1CCCN1CCCC1=O (stereo not drawn)	2.1%	-4.8%
COC(=O)c1ccc(N2C(=O)c3ccc(OC)c(OC)c3C2=O)cc1	4.1%	-2.4%
COc1cc2c(C(=O)N3CCN(c4ccc(C)cc4)C(C)C3)cn(CC(C)C)c(=O)c2cc1OC (stereo not drawn)	-15.7%	-28.5%
CCCCCOc1ccc(Cn2c(=O)oc3ccc(C)cc32)cc1OC	-5.7%	-8.8%
O=C(O)c1nn(-c2cccc(Cl)c2)c(=O)cc1O	-10.1%	i
CC(NC(=O)COC(=O)c1ccc2ccccc2n1)C1CC2CCC1C2 (stereo not drawn)	-4.9%	-3.3%
COc1ccc(C(=O)Nc2cc3c4c(c2)C(C)C(=O)N4CCC3)cc1 (stereo not drawn)	-7.0%	-18.5%
CN1CCc2c(sc(NC(=O)CS(=O)(=O)c3ccc(F)cc3)c2C(N)=O)C1	-7.5%	-14.9%
COc1cc(/C=N/NC(=S)Nc2cccc(S(=O)(=O)N(C)C)c2)cc(OC)c1O	-3.7%	-12.4%
COc1cc(OC)c(OC)cc1/C=C/c1nc2cc3ccccc3cc2c(=O)n1-c1ccc(Cl)cc1	-28.1%	-16.1%
CCCSc1ccc([C@@H]2[C@@H]3C(=O)N(C)C(=O)[C@@H]3[C@]3(C(=O)OC)CCCN23)cc1OC	-20.7%	-25.2%
COc1ccc(C2CC(c3cccs3)=NN2c2ccccc2)cc1 (stereo not drawn)	-6.9%	-12.8%
CCCn1c(=N)n(CC(=O)OCC)c2ccccc21	-14.0%	/
Cc1cc(=O)oc2cc(NS(=O)(=O)c3ccc(F)cc3)ccc12	-7.1%	-20.8%
CC[n+]1c(/C=C/N(C)c2ccccc2)oc2ccc(Cl)cc21	-11.8%	-10.3%
C=C(C)Cn1c(C)cc(C)c(S(=O)(=O)c2ccc(C)cc2)c1=O	-12.6%	i
OC(Cc1ccncc1)(c1ccccc1)c1ccccc1	-14.7%	-7.1%
O=C(Cn1c(=O)oc2cc(S(=O)(=O)N3CCCC3)ccc21)Nc1cccc(C(F)(F)F)c1	-28.2%	/
Cc1ccc(NC(=O)/C=C/c2ccc([N+](=O)[O-])s2)c(C)c1	107.9%[activator]	-11.9%
C[C@H](CO)N1C[C@H](C)[C@@H](CN(C)C(=O)NC2CCCCC2)Oc2c(NC(=O)CCC(F)(F)F)cccc2C1=O	-8.3%	i
COc1cc(CNC(C)C)c(Br)cc1OC1CCCC1	-10.0%	-8.1%
C(=Nc1cnc2ccccc2c1)c1ccc2ccccc2n1	-19.8%	-6.8%
CCC(CC)NC(=O)c1cccc(NC(=O)C(C)C)c1	-5.5%	-6.6%
COc1ccc(C(=O)NC(C(=O)N2CCN(c3ccccc3O)CC2)C(C)C)cc1 (stereo not drawn)	-28.7%	?
CCOC(=O)c1c(-c2cccc([N+](=O)[O-])c2)csc1NC(=O)C1CCCCC1	-9.0%	-14.7%
Cn1c(=O)c2c(nc(N3CCN(c4ccccc4)CC3)n2CCCc2ccccc2)n(C)c1=O	1.8%	/
CC(=O)N1CCN(c2ccc(NC(=O)c3ccc([N+](=O)[O-])o3)cc2Cl)CC1	?	?
O=C(COc1ccc(Cl)cc1Cl)Nc1ccccc1NS(=O)(=O)c1cccs1	-19.1%	i
CC(C)N1CCC(N2CCN(Cc3cc4c(cc3Cl)OCO4)CC2CCO)CC1 (stereo not drawn)	-14.8%	-16.4%
CCOC(=O)C1=CN(CC)S(=O)(=O)NC1c1ccc(F)c(Cl)c1 (stereo not drawn)	-14.1%	i
COc1ccc(Cl)cc1C(=O)Nc1ccc(-c2nnc3n2CCCCC3)cc1	-11.5%	-2.8%
COC(=O)c1ccc(OCC2c3cc(OC)c(OC)cc3CCN2C(=O)c2ccc(OC)cc2)cc1 (stereo not drawn)	-6.8%	-5.3%
O=C(Oc1cccc(-c2cnc3ccccc3n2)c1)c1ccco1	5.9%	/
O=S(=O)(c1cccc(C(F)(F)F)c1)N(CCCN1CCOCC1)Cc1cccs1	-15.3%&0.9%	-23.8%
COc1cccc(NC(=O)C2CCCN(S(=O)(=O)c3c(C)nn(C)c3C)C2)c1 (stereo not drawn)	-14.5%	-16.7%

Next section
canonical_smiles	VACV Venus inh	VACV mCherry inh
Cc1cc(C(=O)NC2CC(C)(C)Cc3c2cnn3-c2ccccc2)n(C)n1 (stereo not drawn)	-7.3%	i
Cc1cc(C)n(CC(=O)N/N=C/c2cccc([N+](=O)[O-])c2)n1	-12.4%	-15.7%
CS(=O)(=O)N(CC(=O)NC1CCCCC1)Cc1ccc(F)cc1	-15.8%	-21.8%
Cc1ccc(Cn2nnc3c(=O)n(CC(=O)NCc4ccc5c(c4)OCO5)cnc32)cc1	?	?
